# Source: PubChem
# Calb FLC – C. albicans growth inhibition with fluconazole, primary screen, CaCi-2 strain, Alamar Blue fluorescence | C. albicans CaCi-2 (fluconazole-resistant clinical isolate) + fluconazole, 48 h | growth inhibition, % (concentration not given with the values) | hit rate 0.57% among 300,000 | AID 1979, 2009;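 active means most replicates above 75%; inconclusive means exactly half above 75%; inactive means most below 75%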;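 further: all wells also contain fluconazole at 8 µg/ml as a sub-toxic cotreatment; 0% = median of DMSO wells and 100% = median of geldanamycin control wells; wells of about 8 µL received 7.5 nL stock; the first replicate is given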
# Beta2AR agonist – beta2AR agonists driving receptor internalization, primary screen, cell-based, FAP fluorogen, flow cytometry | Beta-2 adrenergic receptor (Homo sapiens), P07550 | Am2.2-beta2AR cells; reference of the scale not given here | response, % (concentration not given with the values) | hit rate 0.43% among 340,000 | AID 504454, 2011;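 active means response above a set limit, near 3 SD of response in nonfluorescent compounds, cut at about 42% in these data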;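 further: stock transfer was 100 nL into about 11 µL; a reference agonist was the positive control; negative values mostly stem from fluorescent compounds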
# Target sequence (P07550 whole entry, looked up): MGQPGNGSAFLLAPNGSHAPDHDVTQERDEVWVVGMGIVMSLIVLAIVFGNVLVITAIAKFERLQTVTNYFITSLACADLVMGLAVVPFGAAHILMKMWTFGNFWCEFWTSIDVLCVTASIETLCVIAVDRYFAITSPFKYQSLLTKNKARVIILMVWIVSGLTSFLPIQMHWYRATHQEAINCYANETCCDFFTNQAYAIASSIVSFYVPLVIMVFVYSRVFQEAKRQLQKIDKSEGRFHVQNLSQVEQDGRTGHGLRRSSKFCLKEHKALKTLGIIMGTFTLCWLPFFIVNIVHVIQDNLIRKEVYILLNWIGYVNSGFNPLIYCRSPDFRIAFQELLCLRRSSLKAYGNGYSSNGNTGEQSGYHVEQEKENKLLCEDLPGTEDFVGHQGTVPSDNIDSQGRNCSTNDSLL
# Vif A3G – inhibitors of Vif binding to APOBEC3G peptide, primary screen, biochemical, TR-FRET, GST-Vif 1-94, biotin-A3G peptide, dose response retest (AID 1117319); TR-FRET GST-Vif / biotin-A3G peptide binding; higher % means a stronger effect; test concentration not given here; strong numbers were not always called active; inhibition, %, or IC50 in µM where a hit was titrated; hit rate 0.57% among 260,000;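 active means above the screen mean plus three standard deviations and confirmed in dose response; inconclusive means results disagree or hit not tested in dose response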;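 further: Vif residues 1-94 fused to GST binding biotinylated APOBEC3G peptide 110-148; 0% = full assay without inhibitor and 100% = GST in place of GST-Vif; retest series ran down from 100 µM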
# RanGTP-Imp inh – inhibitors of RanGTP-importin-beta interaction, primary screen, biochemical, FRET, CFP-Ran, YFP-importin-beta, homogeneous; Ran GTPase (GTP-bound) - importin-beta complex; cell-free CFP-Ran/YFP-importin-beta FRET ratio; inhibition, % (test concentration not listed); hit rate 1.1% among 300,000;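 active means most replicates above 15%; inconclusive means exactly half above 15%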;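 further: 0% = DMSO wells and 100% = Ran loaded with GDP instead of GTP; wells of about 40 µL received 100 nL stock; the first replicate is given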
# ALR H2O2 inh – inhibitors of human ALR sulfhydryl oxidase, primary screen, biochemical, H2O2 detection, HRP-luminol luminescence, single point. AID 485317, 2010. FAD-linked sulfhydryl oxidase ALR (Homo sapiens), P55789. inhibition, % (no concentration beside the values). hit rate 3.8% among 290,000. purified ALR, DTT oxidation;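 active means mean and each replicate at 75% or more; inconclusive means only one of the two met; inactive means neither met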;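 further: stock transfer was 7.5 nL into about 7.5 µL; 0% = neutral wells and 100% = wells with inactivated enzyme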
# Target sequence (P55789 whole entry, looked up): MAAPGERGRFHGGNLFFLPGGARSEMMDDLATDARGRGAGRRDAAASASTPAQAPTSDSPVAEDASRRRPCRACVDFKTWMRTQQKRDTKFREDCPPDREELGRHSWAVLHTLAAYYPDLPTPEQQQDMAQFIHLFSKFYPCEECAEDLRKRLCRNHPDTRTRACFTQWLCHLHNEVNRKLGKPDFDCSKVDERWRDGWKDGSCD
# HNF4A DNA FP – change in binding of human HNF4A to DNA, primary screen, biochemical, fluorescence polarization, FITC-DNA | Hepatocyte nuclear factor 4-alpha (Homo sapiens), P41235 | 1 h | activity change, % at 10 µM | hit rate 0.3% among 360,000; in the data active means activity change above about 30%, passing the limit was not always enough;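 further: controls were the assay level and a saturating level of protein; the project sought stronger binding though the title names inhibitors; some compounds called inactive have numbers as strong as hits; positive values seem to mean higher polarization but the record does not say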
# LANA-H2A inh – blockers of LANA interaction with H2A/H2B – biochemical, FP readout, HTS, primary screen; Protein LANA1 (Human herpesvirus 8 type P (isolate GK18)), Q9QR71; inhibition, % (concentration not given with the values); cell-free LANA-H2A/H2B peptide, fluorescence polarization; AID 2629, 2010; hit rate 0.6% among 320,000; in the data active means inhibition mostly above about 10%, no sharp cut-off; inactive means mostly below about 6.7%;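 further: stock transfer was 7.5 nL into about 10 µL; 0% = median of vehicle wells and 100% = median of positive control wells; one replicate is shown; the record names a cut of 25% in any replicate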
# * hit, by the source's call; ? = inconclusive; . = not tested or not shown; & = joins results of further samples.
smiles,HNF4A DNA FP,Vif A3G,Calb FLC,ALR H2O2 inh,Beta2AR agonist,RanGTP-Imp inh,LANA-H2A inh
COc1cc(NC(=O)C2C3C=CC(C3)C2C(=O)O)ccc1NC(=O)c1ccccc1 (centres undefined),0.7,.,-3,23,2,-1.3,-4.5
O=C(NCc1ccccc1F)C1CCCN(c2cnccn2)C1 (centres undefined),2.0,.,3,0,-4,-0.2,-2.5
COc1cccc(-c2nc(C(N)=O)c3[nH]c(=O)n(-c4cccc(Cl)c4)c3n2)c1OC,2.4,0%,1,10,-3,-3.9,-3.1
O=C(NCCc1ccccc1)C1CCCN1S(=O)(=O)c1cccc2nsnc12 (centres undefined),3.2,.,0,-3,-3,-0.9,5.5
CC1CC(C)CN(C(=O)c2cccc3c2-c2ccccc2C3=O)C1 (centres undefined),-0.9,5%,22,-2,-7,1.5,-0.3
Cc1ccccc1SCC(=O)NNC(=O)c1ccccc1O,-2.3,.,0,-2,1,-1.4,1.5
CNC(=S)NCc1ccc2[nH]c(C)cc2c1,4.0,7%,-15,13,-6,5.5,-1.0
O=C(CN1C(=O)c2ccccc2S1(=O)=O)c1ccccc1,0.8,.,26,-10,6,-1.3,-0.7
COc1ccccc1N1C(=O)[C@@H]2[C@H](C1=O)[C@H](C(=O)c1ccc(OC(C)=O)cc1)N1N=CC=C[C@@H]21,.,24%,-6,-2,.,-2.9,2.2
CCOC(=O)c1cnn(-c2ccccc2)c1NC(=O)c1ccc(C)cc1,0.2,-1%,0,-2,4,1.7,-5.1
Cc1nnsc1C(=O)Nc1ccc(Cl)cc1Cl,-0.5,1%,-6,.,4,2.5,-3.2
CC1Cc2ccccc2N1C(=O)CSc1nn2c(=O)c(C(C)(C)C)nnc2s1 (centres undefined),1.0,2%,0,.,-3,2.7,-0.3
Cc1cccc(N2C(=O)c3ccc(C(=O)Nc4cccc(C(=O)O)c4)cc3C2=O)c1,2.6,3%,5,0,-6,-0.7,1.1
CC1C=CCC2C(=O)N(c3cccc(C(=O)N4CCCCCC4)c3)C(=O)C12 (centres undefined),0.8,0%,23,0,-14,-2.1,4.9
Cc1nn(C(C)C(=O)NCCCN2CCCCCC2)c(=O)c2cc3sccc3n12 (centres undefined),6.3,.,-4,2,-5,7.8,0.1
COc1cc(OC)cc(C(=O)NC(c2ccccc2)c2ccccc2)c1,-2.5,.,-2,.,0,-4.4,-6.2
COC(=O)C(CC(C)C)Oc1ccc2c(C)cc(=O)oc2c1 (centres undefined),7.0,2%,31,-2,8,1.2,4.5
CCN1CCN(CCCNC(=O)c2ccc3c(c2)NC(=O)/C(=C\c2cccc(C)c2)S3)CC1,4.3,.,-6,-13,24,-2.6,-3.2
C=C(C)C1CC=C(C)/C(=N/NC(=S)Nc2ccccc2)C1 (centres undefined),-0.1,12%,-8,0,-12,-0.2,1.2
O=C(OCc1c(F)cccc1Cl)c1cccnc1Cl,-0.9,.,-4,-2,-1,-1.3,-0.6
NNC(=O)c1ccc(Cn2cc(Br)c(N)n2)cc1,-1.9,2%,-23,-6,-3,1.4,-5.3
CCOc1ccc(NC(=O)CN(C)C(=O)c2ccc(N3CCCCC3)c([N+](=O)[O-])c2)cc1OCC,0.1,0%,-7,-22,-4,3.9,-2.8
Cc1cc(C)c2nc(-c3ccco3)cc(C(=O)O)c2c1,-43,5%,3,.,10,-1.3,.
CCC(C)(C)NC(=O)Cn1c(-c2ccccc2)cc(C(C)=O)c1C,1.9,2%,20,-12,-19,-2.3,0.9
CN(Cc1ccccc1)S(=O)(=O)c1nnc(NC(=O)c2ccccc2F)s1,-3.7,3%,-6,-5,3,1.2,-3.0
COc1ccc(Nc2nc(C)cc(C)n2)cc1Cl,-4.0,.,2,12,-1,-0.6,0.7
CCOC(=O)c1cnc2scnn2c1=O,0.4,-1%,-10,.,9,-1.7,.
CCC/C(C#Cc1ccsc1)=C1/c2ccccc2C(=O)N1c1ccccc1,0.2,.,.,-1,-4,.,1.7
CC1(C)CC(=O)C(C=NCCN2CCN(C(=O)c3ccc(Br)cc3)CC2)=C(O)C1,-0.4,-2%,2,.,-13,8.3,0.6
O=C(CCSCc1cccc(Cl)c1)NCCc1ccccc1,-5.3,-9%,-3,-26,0,-4.7,7.4
CC(=O)c1cc2c(cc1N/C(=N/S(=O)(=O)c1ccc(Br)cc1)c1ccccc1)OCO2,-9.0,-8%,-8,-6,-5,-0.5,-5.9
Cc1csc2ncc(C(=O)NCc3ccco3)c(=O)n12,-4.5,?,4,-2,-11,0.8,-4.5
CCOC(=O)c1ccc(NC(=O)c2ccc(NC(=O)c3ccccc3)cc2)cc1,-1.7,3%,4,-1,5,-3.8,5.2
O=C(NC1CC2CCCC(C1)N2C(=O)Nc1ccccc1)c1ccccc1 (centres undefined),0.5,.,5,0,2,-0.4,0.8
CCN1C(=O)c2cccc3c(S(=O)(=O)Nc4ccc(O)c(C(=O)O)c4)ccc1c23,-3.6,-2%,35,98*,-19,-0.3,-9.0
CC(=O)Nc1ccc(S(=O)(=O)Nc2nc3c(s2)CCCC3)cc1,1.5,4%,.,23,0,1.9,2.7
CC(=O)N1CCC(C(=O)Nc2ccccc2)(N(Cc2ccccc2)C(=O)c2cccnc2)CC1,1.9,-1%&5%,5,-10,0,0.5,-4.0
C=CCOn1c(=O)c(-c2ccc(C)cc2)[n+]([O-])c2ccccc21,1.3,-6%,10,0,-25,-2.0,2.6
O=C(CSc1nnc(CNC(=O)c2ccco2)o1)Nc1ccc(Cl)cc1,6.1,.,?,-9,-8,1.2,-3.0
NC1=NC(c2cn(-c3ccccc3)nc2-c2cccs2)n2c(nc3ccccc32)N1 (centres undefined),1.9,0%&2%,11,-9,2,-3.6,2.2
COc1ccc(NC(=O)C2=CC(c3ccc(OC)c(OC)c3)=NS(=O)(=O)N2C)cc1,0.3,.,11,-16,-7,-2.1,2.3
COc1cc2c(cc1OC)C(C)N(S(=O)(=O)c1cn(C)cn1)CC2 (centres undefined),0.8,-7%,0,-8,-4,0.1,2.4
COc1ccc2oc(C(=O)NCc3ccccc3CN3CCCC3)c(C)c2c1,7.6,8%,.,-17,-15,.,6.9
S=C1NC[C@H](Cc2ccccc2)N1CCCCC1CCCCC1,-4.3,-9%,-22,0,-3,1.4,0.1
CCOC(=O)c1cccc(NC(=O)CCc2nnc3ccc(N4CCN(C)CC4)nn23)c1,3.2,2%,36,-3,-2,-2.1,0.1
O=C(C[C@H]1C/C=C\C[C@H](NC(=O)OCC2c3ccccc3-c3ccccc32)C(=O)OC[C@@H]2CCCN2C1=O)NCCO,6.1,.,.,13,-1,.,-0.1
CCOc1ccc(Nc2nc3c(c(=O)[nH]2)CCCC3)cc1,4.2,-1%,-17,-15,1,-0.7,1.5
Oc1oc(-c2ccc(Br)cc2)nc1/C=N/c1ccccn1,-5.3,.,49,-5,-11,-3.2,5.9
Cc1ccnc(NC(=O)Nc2ccc(F)cc2)c1,0.1,1%,-9,27,-1,?,3.2
Nc1nonc1-n1nnc(C(=O)N/N=C/c2ccc(OCc3ccccc3F)cc2)c1CNc1ccccc1,-4.4,.,.,-3,-3,-0.4,0.2
C[C@H](CO)N1C[C@H](C)[C@@H](CN(C)C(=O)NC2CCCCC2)Oc2ccc(NS(=O)(=O)c3ccc(F)cc3)cc2C1=O,-1.4,.,.,2,-9,.,2.1
CC(C)c1ccc(S(=O)(=O)N2CCN(C(=O)C3CCCCC3)CC2)cc1,-4.4,?,10,-5,1,2.3,2.4
O=C(NCC1CCCO1)C1CC(=O)N(C2CCCC2)C1 (centres undefined),3.2,-1%,-1,-5,-6,2.3,-6.2
COc1cc(C2c3sc(=O)[nH]c3SC3C(=O)N(c4ccc(C)cc4)C(=O)C32)ccc1O (centres undefined),-1.5,26%,2,69,5,5.2,5.8
Cc1c(Cl)cccc1NC(=O)CSc1ncnc2c1cnn2CCc1ccccc1,1.6,15%,-6,.,-21,0.0,-1.9
CCCC(=O)n1nc(-c2ccco2)nc1SCc1ccccc1,0.2,8%,16,66,-11,2.5,1.9
CCCN(CCC)CCCNC(=O)c1cc2c(-c3ccc(OC)c(OC)c3)nn(C)c2s1,0.7,-3%,-8,-26,14,-0.5,-1.7
Cc1ccc(S(=O)(=O)NCCC(=O)NCCOc2ccccc2)cc1,9.1,-5%,.,.,-2,.,.
CN(C)S(=O)(=O)c1ccc(Cl)c(C(=O)NNC(=O)Cn2ccc(C(F)(F)F)n2)c1,-1.3,1%,.,.,-1,.,.
Cc1cc(C)c2c(N)c(C(=O)N/N=C/c3cccnc3)sc2n1,-0.9,-3%,4,-3,11,7.5,3.9

# Other structures:
smiles,HNF4A DNA FP,Vif A3G,Calb FLC,ALR H2O2 inh,Beta2AR agonist,RanGTP-Imp inh,LANA-H2A inh
Cc1cc(-c2ccc(NC(=O)[C@@H]3CCCC[C@@H]3C(=O)O)c(C)c2)ccc1NC(=O)[C@@H]1CCCC[C@@H]1C(=O)O,-2.0,.,16,19,-3,?,-0.1
CSC1=NCCN1C(=O)c1cccc(C(F)(F)F)c1,-1.1,-8%,4,-2,0,0.6,-1.7
COc1ccc(-n2c(=O)cc(N3CCN(c4ccccc4)CC3)[nH]c2=O)cc1,3.1,21%,11,0,0,0.0,-4.6
O=C(NC1=NCCS1)c1cccc(N2C(=O)c3ccccc3C2=O)c1,-4.3,8%,-3,1,-9,2.5,1.1
O=C(OC1CCOC1=O)c1cc(-c2cccc(Br)c2)nc2ccccc12 (centres undefined),1.8,.,9,-7,-1,1.3,-4.7
CC(Oc1ccc(Cl)cc1Cl)C(=O)NCCN1CCOCC1 (centres undefined),2.7,-2%,-5,1,-4,-2.6,-6.7
CSC1=C(C#N)C(c2ccc3c(c2)OCO3)C2=C(CCCC2=O)N1 (centres undefined),0.0,.,-9,6,-13,0.3,-4.0
CC(OC(=O)c1ccc(-n2cnnn2)cc1)C(=O)Nc1ccc(F)c(F)c1F (centres undefined),-0.3,4%,.,.,-3,.,-1.2
Cc1ccc(C(=O)Nn2cnnc2)cc1S(=O)(=O)N1CCOCC1,-2.4,8%,4,-2,-5,?,3.3
CC1(C)CC(=O)C2=C(C1)NC(Nc1nc3ccccc3o1)=NC2c1ccccn1 (centres undefined),-0.6,-4%,-5,-3,5,0.8,-3.0
O=C1CC2(CCN(C(=O)c3ccc([N+](=O)[O-])cc3)CC2)Oc2ccccc21,-0.7,3%,-11,-6,3,-0.4,0.4
COc1ccc(C)cc1NS(=O)(=O)c1ccc(Br)s1,4.2,19%,21,-3,15,2.6,-4.8
CC(=O)c1cccc(NC(=O)CCCCCn2nnc3ccccc3c2=O)c1,-2.7,1%,0,20,-7,-4.3,1.0
O=C(O)c1cccc(NC(=O)c2ccc(COc3ccc(Cl)cc3)cc2)c1,-0.8,.,-3,-4,17,1.8,-1.7
COc1ccc(Cl)cc1NC(=S)NNC(=O)c1cccnc1,7.8,.,47,89*,3,2.9,-7.4
